Source: PubChem BioAssay
HPGD block: blocks human HPGD enzyme activity | P15428 | purified HPGD, NADH fluorescence kinetic, PGE2 substrate | Potency, µM, without a hit: at the highest dose activity change, negative = inhibition, usual class: inhibitors | 150,000 tested, 4.3% active | AID 894; active = well fitted inhibition curve with a large enough effect (not every such curve was filed as active); inconclusive = small, poorly fitted or top-dose-only effect, or another doubt; inactive = no such curve, though single readings can be large or run the other way;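 also: top concentration of the series not given in the record; plate controls included wells without enzyme; inactives centre near -10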
Target sequence (P15428 whole entry, looked up): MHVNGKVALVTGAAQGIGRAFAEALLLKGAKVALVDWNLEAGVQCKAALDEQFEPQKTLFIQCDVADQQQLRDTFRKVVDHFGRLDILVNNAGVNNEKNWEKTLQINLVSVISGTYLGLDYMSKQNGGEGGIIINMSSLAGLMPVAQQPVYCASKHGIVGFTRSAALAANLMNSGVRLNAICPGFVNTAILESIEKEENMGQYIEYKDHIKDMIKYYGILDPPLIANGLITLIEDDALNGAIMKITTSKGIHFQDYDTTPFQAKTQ
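NADH formation kinetics: reaction with 30 uM PGE2 and 1 mM NAD+ (final), 20 nM enzyme, Tris-HCl pH 8 with Tween 20, after 15 min compound preincubation at room temperature. Fluorescence change, last versus first of five reads.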
Numbers without * were called inactive; ? = inconclusive. % is scaled to controls: 0 for no effect and ±100 for the full control effect; potency is read from the fitted curve at half-maximal effect.

Start of the listing, in advance, three compounds:
SMILES	HPGD block
CCOC(=O)N1CCN(C(=O)c2cccc(-n3c(=S)[nH]c4cc(Cl)ccc4c3=O)c2)CC1	-23%
CCOc1ccc2nc(SCC(=O)N3CCCCCC3)c(C#N)cc2c1	-26%
COc1ccc(C)cc1NC(=O)CSc1nnc(CC(=O)Nc2ccccc2C)n1C	-11%

This part in full, from the first entry:
SMILES	HPGD block
CCOC(=O)N1CCN(C(=O)c2cccc(-n3c(=S)[nH]c4cc(Cl)ccc4c3=O)c2)CC1	-23%
CCOc1ccc2nc(SCC(=O)N3CCCCCC3)c(C#N)cc2c1	-26%
COc1ccc(C)cc1NC(=O)CSc1nnc(CC(=O)Nc2ccccc2C)n1C	-11%
COc1ccc(NS(=O)(=O)c2c(C)cc(C)cc2C)cc1	-6%
Cc1ccccc1N1C(=O)C(Oc2ccc(Cl)cc2)C1CNCCCOC(C)C (stereo unspecified)	-4%
COc1ccc(C2C(C(=O)N3CCN(c4ccccn4)CC3)CC(=O)N2c2ccc(OC)cc2)cc1 (stereo unspecified)	-11%
O=C(c1ccccc1C(=O)N1CCN(c2ccccc2F)CC1)N1CCN(c2ccccc2F)CC1	3%
CCOC(=O)c1cnc(SC)nc1Sc1ccc(Cl)cc1Cl	-10%
O=C(O)C1Cc2c([nH]c3ccccc23)C(c2coc3ccccc3c2=O)N1 (stereo unspecified)	-8%
CCOc1ccc(NC(=O)C(c2ccccn2)N(C(=O)CCl)c2ccc(OCC)cc2)cc1 (stereo unspecified)	-13%
CC(=O)Nc1ccc(S(=O)(=O)N2CCC(c3nc4ccc(C)cc4[nH]3)CC2)cc1	-18%
Cc1ccc(S(=O)(=O)N(CC(=O)N2CCc3ccccc3C2)c2cccc(Cl)c2)cc1	-9%
Cc1c(NC(=O)c2cccs2)cccc1-c1nc2ccccc2s1	-20%
N#Cc1cc(-c2ccccc2)oc1NC(=O)c1ccccc1	-11%
COc1cccc(NC(=O)Cc2ccccc2)c1	-14%
Cn1c(=O)c2c(SCC(=O)N3CCOCC3)nc(C3CC3)nc2n(C)c1=O	-4%
COc1ccc(C)cc1NC(=S)N1CCN(c2ccccn2)CC1	-19%
O=C1C2C3C=CC(CO)(O3)C2C(=O)N1c1ccccc1-c1ccccc1 (stereo unspecified)	7.9µM*
S=C(c1ccc2c(c1)OCO2)N1CCCC1	-9%
CN1CN(C)c2cccc3cccc1c23	?
O=C(NC(NC1CCS(=O)(=O)C1)C(=O)c1ccccc1)c1ccc(Cl)cc1 (stereo unspecified)	-16%
N#CCCn1cc(/C=N/O)c(-c2ccc(-c3ccccc3)cc2)n1	-12%
CCn1c(SCC(=O)Nc2ccc(Cl)cc2)nnc1C1CC1	7%
CN(C(=O)CN1C(=O)c2ccccc2S1(=O)=O)c1ccccc1C(=O)O	-3%
COc1cccc(C2NC(=O)c3ccccc3O2)c1OC (stereo unspecified)	-17%
CN(C)S(=O)(=O)c1cc(NC(=O)CN2CCN(c3ccccc3)CC2)ccc1Cl	3%
S=C(c1ccc(-c2ccc(Cl)c(Cl)c2)o1)N1CCOCC1	25µM*
COc1cc(OC)cc(-c2nc3ccccc3c(=O)o2)c1	?
CCn1c(SCC(=O)Nc2nc(-c3ccccc3)cs2)nnc1-c1ccccc1O	?
COCCn1nnnc1C(C(C)C)N(Cc1cccnc1)Cc1ccccc1Cl (stereo unspecified)	-8%
COc1ccc2c(Cl)c(C(=O)NCCCn3ccnc3)sc2c1	-9%
Cc1cccc(C)c1NC(=O)COc1ccccc1C(=O)Nc1ccc(Br)cn1	0%
CCN(C(=O)c1ccco1)c1nc(CC(=O)Nc2ccc(Cl)cc2)cs1	-14%
CCn1c(Cc2ccccc2)nnc1SCC(=O)Nc1ccc(S(N)(=O)=O)cc1	-11%
CCn1c2ccccc2c2cc(N)ccc21	?
CCOC(=O)C(NC(=O)CC)(Nc1nc2c(s1)CCCC2)C(F)(F)F (stereo unspecified)	-18%
Cc1c(O)c(S(=O)c2ccccc2)c(=O)n(-c2ccccc2)c1-c1ccccc1 (stereo unspecified)	-17%
Cc1cccc(NC(=O)Cn2nnc(C(=O)NCc3cccs3)c2N)c1C	-11%
COc1ccc(CCNC(=O)CCN2C(=O)C(C)Oc3ccc(C)cc32)cc1OC (stereo unspecified)	-7%
Cc1ccc(S(=O)(=O)N2CCCCC2)cc1C(=O)OCC(=O)NC(=O)NC12CC3CC(CC(C3)C1)C2	-14%
CCCS(=O)(=O)N1CCC(C(=O)NCCCN(C)Cc2ccccc2)CC1	-1%
O=C(Nc1cccc(S(=O)(=O)N2CCCC2)c1)c1ccc2c(c1)OCO2	-12%
COC(=O)C1C(=O)C2=C(CC1C)NC(C)=C(C(=O)OC(C)C)C2c1ccc(OC)c(O)c1 (stereo unspecified)	-8%
CCN(CC)c1nc(SCC(=O)O)nc(N(CC)CC)n1	-4%
COc1ccc(S(=O)(=O)N2CCC(C(=O)Nc3cccc(Cl)c3)CC2)cc1OC	-3%
COc1cccc(NC(=O)c2cccs2)c1	-18%
Cc1cc(C)n2cc(COc3ccccc3)nc2n1	?
COc1ccccc1N1CCN(C(=O)c2oc3cc(C)cc(C)c3c2C)CC1	-3%
O=C(CN1CCN(CC(=O)Nc2ccccc2Cl)CC1)Nc1ccc2c(c1)OCCO2	-8%
Cc1cccc(NC(=O)C2CCN(S(=O)(=O)c3cccc4nsnc34)CC2)n1	-7%
O=C(c1cccc(F)c1)N1CCC[C@@]2(CCN(c3cccc(-c4ccccc4)c3)C2)C1	-16%
Cc1ccc(-n2ncc3c(=O)n(-c4ccc(C)c(C)c4)c(-c4ccco4)nc32)cc1	?
Cc1ccc(-n2c(C)cc(-c3csc(N)n3)c2C)cc1	-13%
Brc1ccc2ncnc(NCc3ccccc3)c2c1	-29%
O=S(=O)(c1ccccc1)N1c2cc(Cl)ccc2Oc2nc3ccccc3nc21	?
Cc1cc(C)c(NC(=O)CN2C(=O)NC3(CCCCC3)C2=O)c(C)c1	2%
O=C(COc1ccc(Cl)cc1Cl)Nc1nc2n(n1)C(c1ccccc1)CC(=O)N2 (stereo unspecified)	?
O=C(NNC(=O)c1cccs1)c1ccc(Br)o1	-5%
COC(=O)c1cn(NC(=O)C2CCC(C)CC2)c(=O)c2ccccc12 (stereo unspecified)	-10%
CC(C)C(=O)Nc1ccc(C(=O)NNC(=S)NC(=O)c2cccs2)cc1	-9%

Next part.
SMILES	HPGD block
COc1ccc(C2N3CC4(C)CN2CC(C)(C3)C4O)cc1OC (stereo unspecified)	-9%
CC(=O)c1c(C)n([O-])c2cc(C)ccc2[n+]1=O	-5%
CCOCCn1c(CN2CCC(C)CC2)nc2c1c(=O)n(C)c(=O)n2C	-10%
CSc1ncc(Cl)c(C(=O)Nc2cccc3ccccc23)n1	-2%
O=C(NS(=O)(=O)Oc1ccc(Cl)cc1)OC[C@@H]1CCCN2CCCC[C@H]12	-2%
COCCCNC(=O)c1ccc(C(=O)NCCCOC)cc1	-11%
CC[C@H](/C=C/[C@@H](C)[C@H]1CC[C@H]2C3CC=C4C[C@@H](O)CC[C@]4(C)C3CC[C@]12C)C(C)C (stereo partly specified)	-3%
CSC1=C(C#N)C(c2ccc(C)s2)CC(=O)N1 (stereo unspecified)	-6%
COc1ccc(-c2ccc(-c3nc4c(c(=O)[nH]c(=O)n4Cc4ccccc4)n3C)o2)c([N+](=O)[O-])c1	28µM*
COc1ccc(-n2c(C)cc(/C=C3/SC(=S)N(C)C3=O)c2C)cc1	-10%
C#CCOC(=O)CCC(=O)Nc1cc(OC)nc(OC)n1	-6%
O=C(c1ccco1)N1CCN(C2=NS(=O)(=O)c3ccccc32)CC1	-1%
O=C(/C=C/Sc1ccccc1)c1ccc(Cl)cc1	-17%
C[C@@H](N)[C@@H](C)Cc1ccccc1	2%
CCCn1c(=O)c2ccccc2n2c(SCc3cc(=O)oc4ccc5ccccc5c34)nnc12	?
Cc1ccc(S(=O)(=O)c2nc(NCCCn3ccnc3)sc2Cl)cc1	-4%
CC(C)COCC1CC2(CC(C)(c3csc(N)n3)OC2=O)C(=O)O1 (stereo unspecified)	-10%
CS(=O)(=O)N(Cc1ccc(C(=O)NCc2ccco2)cc1)c1ccccc1	28µM*
COC(=O)C1(Cc2ccccc2)C=C2C(=C(c3ccccc3)C(=O)C2C)CN1 (stereo unspecified)	10µM*
CCOC(=O)C1CCN(S(=O)(=O)c2cccc(-c3cn4cccnc4n3)c2)CC1	?

Ordered by value in HPGD block (highest first): some entries from above.
SMILES	HPGD block
C[C@@H](N)[C@@H](C)Cc1ccccc1	2%
O=C(c1ccco1)N1CCN(C2=NS(=O)(=O)c3ccccc32)CC1	-1%
O=C(NS(=O)(=O)Oc1ccc(Cl)cc1)OC[C@@H]1CCCN2CCCC[C@H]12	-2%
CC[C@H](/C=C/[C@@H](C)[C@H]1CC[C@H]2C3CC=C4C[C@@H](O)CC[C@]4(C)C3CC[C@]12C)C(C)C (stereo partly specified)	-3%
Cc1ccc(S(=O)(=O)c2nc(NCCCn3ccnc3)sc2Cl)cc1	-4%
CC(C)COCC1CC2(CC(C)(c3csc(N)n3)OC2=O)C(=O)O1 (stereo unspecified)	-10%
COCCCNC(=O)c1ccc(C(=O)NCCCOC)cc1	-11%

3 records drawn at random from the list so far:
SMILES	HPGD block
COc1ccc(C2C(C(=O)N3CCN(c4ccccn4)CC3)CC(=O)N2c2ccc(OC)cc2)cc1 (stereo unspecified)	-11%
COC(=O)c1cn(NC(=O)C2CCC(C)CC2)c(=O)c2ccccc12 (stereo unspecified)	-10%
CC(=O)c1c(C)n([O-])c2cc(C)ccc2[n+]1=O	-5%

The list goes on:
SMILES	HPGD block
O=Cc1cccc(OC(=O)c2ccc(Cl)cc2Cl)c1	16µM*
Cc1cc(-c2ccccc2)n2nc(C)c(-c3ccccc3)c2n1	-13%
O=C(NCCCCc1ccccc1)C12CN(Cc3ccccc3)CC1C(c1ccc([N+](=O)[O-])cc1)=NO2 (stereo unspecified)	-18%
O=C(CNc1ccc2c(c1)OCO2)N/N=C\c1cn(Cc2ccccc2)c2ccccc12	-16%
CCOC(=O)N1CCN(Cc2nc(N)nc(Nc3ccc(OC)cc3)n2)CC1	-1%
Cc1ncc([N+](=O)[O-])n1Cc1ccccc1	-13%
CCOC(=O)C(Sc1nnc2c3ccccc3n(CC)c2n1)C(=O)OCC	?
COc1ccccc1-c1cc(C(=O)NCc2ccco2)no1	20µM*
COC(=O)Cc1cc(=O)n2[nH]c(C)nc2n1	-2%
CCCc1nnc(NC(=O)CCC(=O)O)s1	-25%
CC(CO)(CO)NCc1ccc(-c2ccccc2)cc1	-10%
CS(=O)(=O)N(CCc1ccccc1)CC(=O)Nc1ccccc1	-2%
CC1(C)CC(=O)C(C=NCCCN2CCCC2=O)=C(O)C1	-7%
O=C(CNC(=S)N(CCCN1CCOCC1)Cc1cccs1)N1CCOCC1	1%
COc1ccc(NC(=O)CCC2COc3ccccc3O2)c(OC)c1 (stereo unspecified)	1%
Cc1cc(=O)oc(C)c1C(=O)NCCN1CCOCC1	-7%
O=C(Nc1ccncc1)c1ccc2c(c1)C(=O)N(C1CCCCC1)C2=O	-11%
COc1ccnc(N2CCN(c3ccccc3)CC2)c1C#N	-24%
COc1ccccc1NC(=O)Cn1c(CN2CCCCC2)nc2ccccc2c1=O	-12%
COC(=O)C(c1ccc(OC)c(OC)c1)C1c2ccccc2C=C(C)N1C(=O)OC (stereo unspecified)	-9%

Shown as labelled records: 4 of the compounds above
> COC(=O)Cc1cc(=O)n2[nH]c(C)nc2n1
  HPGD block: -2%

> O=C(Nc1ccncc1)c1ccc2c(c1)C(=O)N(C1CCCCC1)C2=O
  HPGD block: -11%

> CC1(C)CC(=O)C(C=NCCCN2CCCC2=O)=C(O)C1
  HPGD block: -7%

> Cc1cc(-c2ccccc2)n2nc(C)c(-c3ccccc3)c2n1
  HPGD block: -13%

Remaining list, next part:
SMILES	HPGD block
N#CC1(Cc2ccc(Cl)cc2)c2ccccc2C=CN1C(=O)c1ccccc1 (stereo unspecified)	-20%
CCCC[C@@H](C=O)NC(=O)[C@H](CC(C)C)NC(=O)[C@H](CC(C)C)NC(C)=O	0%
Nn1c(Cc2cccc3ccccc23)nnc1SCc1ccccc1Cl	?
COc1ccc([C@H]2[C@H](C(=O)C(C)(C)C)N3N=Cc4ccccc4C3C23C(=O)OC(C)(C)OC3=O)cc1 (stereo partly specified)	-14%
COc1ccccc1NC(=O)N1CCCC1C(=O)NCc1ccc(F)cc1 (stereo unspecified)	-4%
COc1ccc(-c2cc(C(F)(F)F)nc(N3CCCCCC3)n2)cc1	?
CC(C)(C)c1ccc(CN(Cc2ccccc2)C(c2ccccn2)c2nnnn2C(C)(C)C)cc1 (stereo unspecified)	-11%
Cc1ccc(C2(C)NC(=O)N(CCOc3ccccc3)C2=O)cc1 (stereo unspecified)	-10%
CCSc1c(C(=O)NC)ccc2c1C(=O)c1ccccc1C2=O	-7%
C/C(=N\N1CCN(c2ccc(Cl)cc2)CC1)c1ccco1	-10%
O=C(COC(=O)C1CC2C=CC1C2)Nc1ccccc1 (stereo unspecified)	-5%
CCN(CC)C(=O)c1cn(CC)c(=O)c2cc(OC)c(OC)cc12	-20%
COc1ccc(OC)c(-n2c(=S)[nH]c3cc(C(=O)NCCCN4CCCC4=O)ccc3c2=O)c1	-1%
Cc1ccc(N2CC(C(=O)OCc3ccccc3F)CC2=O)cc1 (stereo unspecified)	?
COc1ccc(NC(=S)NNC(=O)OC(C)(C)C)cc1OC	-18%
Cc1ccc(/C=N/NC(=O)CCCOc2ccc(Cl)cc2Cl)cc1[N+](=O)[O-]	-8%
CC(C)CCNS(=O)(=O)c1ccc(-c2ccc(S(=O)(=O)NCCC(C)C)cc2)cc1	-4%
O=c1oc(-c2cccs2)nc2sc3c(c12)CCCC3	?
O=C(Nc1cccnc1)c1ccccc1F	-9%
c1ccc(-c2nnc(SCc3cn4ccsc4n3)o2)cc1	?
Cn1c(=O)c2c(nc(CN3CCc4ccccc4C3)n2Cc2cccc(Cl)c2)n(C)c1=O	?

The list is partial (hit frequency here may not be typical).
